Assay outcomes: PubChem, National Center for Advancing Translational Sciences (NCATS)
StopGo RLuc = FMDV 2A StopGo reporter, Renilla signal; HEK cells with a luciferase reporter of 2A StopGo recoding; Potency, µM (top dose mostly 57.5 µM), for the others: top-dose signal change, negative = less light; hit rate 0.32% among 120,000; active means well fitted falling curve with a large enough effect; inconclusive means small, poorly fitted or top-dose-only effect; inactive means no such curve, though single readings can be large or run the other way; also: nearly all actives have a fitted effect of over 55% in size; overnight with compound
StopGo FLuc = lowers the firefly signal of an FMDV 2A StopGo reporter | HEK cells with a luciferase reporter of 2A StopGo recoding | Potency, µM (series often up to 57.5 µM), for the others: top-dose signal change, negative = less light | hit rate 0.23% among 120,000 | AID 1745856; active = well fitted falling curve with a large enough effect; inconclusive = small, poorly fitted or top-dose-only effect; inactive = no such curve, though single readings can be large or run the other way; also: nearly all actives have a fitted effect of over 60% in size; overnight with compound
* hit, by the source's call; ? = inconclusive; & = joins results of further samples; [ ] = dose if it differs, or a comment. % is scaled to controls: 0 for no effect and ±100 for the full control effect; potency is read from the fitted curve at half-maximal effect. Some of the compounds tested; the hit share may differ from the screen's.

no.	Structure	StopGo RLuc	StopGo FLuc
1	Cc1ncsc1C(=O)NCCc1cccs1	6%	170%[activator]
2	CCOc1ccc(NC(=O)Cn2c(=O)oc3cc(S(=O)(=O)NC4CCCC4)ccc32)cc1	333%[activator]	?
3	Cn1cc(C(=O)N2CCN(CC(=O)N3CCCC3)CC2)c2ccccc21	-10%	-16%
4	CCNC(=S)Nc1ccc(F)c(Cl)c1	117%[activator]	9%
5	CCn1nc(C(=O)Nc2ccc3nc(C)sc3c2)c2ccccc2c1=O	37%[activator]	114%[activator]
6	Cn1c(COc2cc(Cl)ccc2Cl)n[nH]c1=S	10%	33%[activator]
7	CCOC(=O)C(=O)N1CCN(c2nc(C)c3c(c2C#N)CCCC3)CC1	4%	-3%
8	O=C(CCn1nc(-c2ccccc2)c2ccccc2c1=O)NCc1ccccc1	19%	2%
9	O=C(c1c(F)cccc1F)N(Cc1cccc2[nH]ccc12)C1CC1	160%[activator]	2%
10	CCOC(=O)c1ccc(NC(=O)Cn2nc3c4ccccc4n(Cc4cccc(F)c4)cc-3c2=O)cc1	13%	-7%
11	CCC(Cn1nnc2ccccc2c1=O)NC(=O)Nc1cccc(Cl)c1 (stereo not given)	114%&107%[activator]	12%&-7%
12	CCOC(=O)c1cc(S(=O)(=O)Nc2c(C)cc(C)cc2C)[nH]n1	2%	-21%
13	COc1ccc(C2CCCCCN2C(=O)CCn2ncc(=O)c3ccccc32)cc1 (stereo not given)	-1%	78%[activator]
14	COc1ccc(NC(=O)NCC2CCN(CCc3ccc(F)cc3)CC2)cc1OC	-12%	-13%
15	Cc1ccccc1Nc1sc(C(=O)c2ccccc2)c(N)c1C(=O)NCc1ccc(Cl)cc1	?	?
16	C/C(=N/Nc1cccc([N+](=O)[O-])c1)c1ccccn1	6%	186%[activator]
17	Cc1ccccc1C1C=C(c2ccc(Cl)cc2)Nc2nnnn21 (stereo not given)	-1%&-12%	8%&-14%
18	CCOC(=O)c1ccc(NS(=O)(=O)c2cn(C)c(C)n2)cc1	-10%	-8%
19	COc1cc(NC(=O)c2ncn(-c3ccccc3)n2)cc(OC)c1	2%	0%
20	CCCCN(C(=O)Nc1ccc(OCC)cc1)C1CCN(C(C)=O)CC1	-14%	5%
21	COc1cccc(CNC(=O)CCCn2ncn3c(cc4occc43)c2=O)c1OC	-14%	-12%
22	CCOC(=O)N1CCN(S(=O)(=O)N2CCCC(C(=O)NCc3cccc(OC)c3)C2)CC1 (stereo not given)	-14%	-16%
23	N#Cc1ccc(COc2ccc(-n3cnnn3)cc2)c(F)c1	-17%	2%
24	CCC(=O)N1CCCc2cc(S(=O)(=O)N3CCC(C(=O)Nc4ccc(F)c(F)c4)CC3)ccc21	?	-27%
25	COc1cc2c(cc1OC)CN(Cc1cc(=O)c(OCc3c(Cl)cccc3Cl)co1)CC2	27%	-5%
26	COc1ccc(OC)c(C2CC(=O)c3c([nH]c(C(=O)OCC4CCCCC4)c3C)C2)c1 (stereo not given)	183%[activator]	21%
27	COc1ccccc1C(=O)Nc1ccc2nc(SCC(=O)N3CCCc4ccccc43)sc2c1	2%	-15%
28	Cl/C(=N\Nc1c(Cl)cc(Cl)cc1Cl)c1ccccc1	36%[activator]	23%
29	CN(C)CCNC1CCCCC1	0%	0%
30	CC(C)CCCC(C)NC(=O)CCNC(=O)c1ccccc1 (stereo not given)	11%	2%
31	Cc1ccc2oc3c(c(=O)c2c1)C(c1ccccc1F)N(CCCN(C)C)C3=O (stereo not given)	-9%	69%[activator]
32	Brc1ccc(-c2cc3n(c2)CCc2ccccc2-3)cc1	23%	113%[activator]
33	CCOc1ccc(NC(=O)CSC2=C(C#N)C(c3ccccc3Cl)C(C(C)=O)=C(C)N2)cc1 (stereo not given)	17%	4%
34	CN1CCN(c2oc(-c3ccc(Cl)cc3)nc2C#N)CC1	13%	44%[activator]
35	O=C(Cn1ncc2c(=O)oc3ccccc3c21)N1CCN(c2ccc(Cl)cc2)CC1	-11%	-21%
36	Cn1c(=O)c2c(-c3ccccc3)n3c(c2n(C)c1=O)C(c1cc(Cl)ccc1O)Nc1ccccc1-3 (stereo not given)	-8%	9%
37	COc1ccc(C(=O)Nc2ccc(-c3nc4cc(C)ccc4o3)c(O)c2)cc1	2%	0%
38	Cc1cccc(NC(=O)C2CCCN2c2ncnc3ccccc23)c1C (stereo not given)	?	?
39	C=CCN(CC=C)C(=O)Nc1cccc(C(=O)NCC)c1	-7%	21%
40	Cc1cccc(C(=O)Nc2sc3c(c2C(=O)Nc2ccccc2)CCC3)c1	-8%	-18%
41	Cc1ccc(NC(=O)Cn2nc(C(F)(F)F)c3c2CCC3)cc1C	15%	18%
42	O=C(Cc1ccc(F)cc1)NCC1CCN(Cc2cccs2)CC1	2%	-9%
43	CCN(C(=O)c1cc2c(=O)n3cccc(C)c3nc2s1)c1ccc(C)c(C)c1	-5%	-18%
44	COc1ccc(Oc2c(C)oc3cc(OC(=O)N4CCOCC4)ccc3c2=O)cc1	-9%	9%
45	Cc1c(C(=O)Nc2cccc(-c3nc4ccccc4s3)c2)oc2ccccc12	-10%	11%
46	CCOC(=O)C(NC(=O)c1ccccc1)C(=O)OCC	3%	1%
47	Cc1ccc(-c2cc3c(SCC(=O)N4CCN(c5ccccc5F)CC4)nccn3n2)cc1	-14%	39%[activator]
48	O=C(Nc1cccc(C(F)(F)F)c1)c1c(-c2ccc(F)cc2)nc2n1CCS2(=O)=O	?	?
49	Brc1ccc(-c2nc(-c3ccccn3)no2)o1	-4%	-59%
50	Cc1ccc(-n2cccc2)cc1C	31%[activator]	32%[activator]

The list goes on, overlapping the part above by 7 compounds.
no.	Structure	StopGo RLuc	StopGo FLuc
44	COc1ccc(Oc2c(C)oc3cc(OC(=O)N4CCOCC4)ccc3c2=O)cc1	-9%	9%
45	Cc1c(C(=O)Nc2cccc(-c3nc4ccccc4s3)c2)oc2ccccc12	-10%	11%
46	CCOC(=O)C(NC(=O)c1ccccc1)C(=O)OCC	3%	1%
47	Cc1ccc(-c2cc3c(SCC(=O)N4CCN(c5ccccc5F)CC4)nccn3n2)cc1	-14%	39%[activator]
48	O=C(Nc1cccc(C(F)(F)F)c1)c1c(-c2ccc(F)cc2)nc2n1CCS2(=O)=O	?	?
49	Brc1ccc(-c2nc(-c3ccccn3)no2)o1	-4%	-59%
50	Cc1ccc(-n2cccc2)cc1C	31%[activator]	32%[activator]
51	Cn1c(=O)c2c(nc(N3CCOCC3)n2Cc2cccc(C(F)(F)F)c2)n(C)c1=O	-6%	3%
52	CCC(C)(C)NC(=O)CCc1ccc(C#N)cc1	-1%	-10%
53	COc1ccccc1CCNC(=O)c1sc(NCC(C)C)nc1C	-12%	71%[activator]
54	O=C(CSc1nc2ccccc2c(=O)n1CCC(=O)NC1CCCCC1)Nc1ccccc1Cl	-1%	12%
55	COc1ccc(-c2cc3nc(C)c(CCC(=O)Nc4ccc5c(c4)OCO5)c(C)n3n2)c(OC)c1	-5%	19%
56	COc1cc(C2N=C(N)Nc3nc4ccccc4n32)ccc1OCC(=O)O (stereo not given)	-11%	-13%
57	CC(C)CC(=O)Nc1ccc2nc(SCC(=O)N3CCCC3)sc2c1	-5%	-20%
58	C#C[C@@H]1CC2C3CCC4=CC(=O)CCC4C3CCC2(CC)C1O (stereo not given in full)	-5%	5%
59	N#CCN(C(=O)c1ccc2c(c1)OCCCO2)C1CC1	6%	6%
60	Cc1nc2c(c(C)c1CCC(=O)NCCN1CCCC1)c(=O)n(C)c(=O)n2C	-13%	-13%
61	Nc1nccnc1C(=O)Nc1cccc(OCc2ccccn2)c1	3%	59%[activator]
62	COc1ccccc1CNC(=O)c1ccc2nc(Cc3ccccc3F)oc2c1	2%	29%
63	Cc1cc(/C=C/C(=O)c2ccc(F)cc2)cc(C)c1O	53%[activator]	153%[activator]
64	Cc1nn2c(=O)cc(COC(=O)c3ccc(NC(=O)COc4ccc(C)c(C)c4)cc3)nc2s1	-5%	-3%
65	COc1ccc(CNC(=O)c2ccc(CS(=O)(=O)c3ccccc3OC)o2)cc1	10%	-16%
66	Cc1c(NC(=O)Nc2ccc(Cl)c(C(F)(F)F)c2)c(=O)n(-c2ccccc2)n1C	-18%	-23%
67	CC(CC(=O)c1ccc(Cl)cc1)CC(=O)c1ccc(Cl)cc1	7%	8%
68	COc1ccc(NC(=O)N2CCC(NS(=O)(=O)c3cc(Cl)ccc3OC)CC2)cc1	37%[activator]	-3%
69	COc1ccc(C(=O)Nn2c(CCC(=O)O)ccc2-c2ccc(Cl)cc2)cc1OC	-19%	-16%
70	CCN(C(=O)c1cc2c(=O)oc3ccc(C)cc3c2s1)c1cc(OC)ccc1OC	-5%	-13%
71	COc1ccccc1CNc1nc(-c2ccco2)nn1S(=O)(=O)c1ccc2ccccc2c1	0%	77%[activator]
72	Cc1ccc(CCC(=O)NCc2cccnc2)cc1	1%	-2%
73	CCN(C(=O)Cn1c(=O)oc2cc(S(=O)(=O)N3CCCC3)ccc21)c1cccc(C)c1	7%	0%
74	CCOc1ccc2ccccc2c1C(=O)N[C@@H]1C(=O)N2[C@@H]1SC(C)(C)[C@@H]2C(=O)O	-6%	-7%[11.5 µM]
75	Cc1cccc(CCNC(=O)C2CCN(c3ncnc4c3nc3n4CCCCC3)CC2)c1	-7%	-19%
76	CCOC(=O)Cn1c(=O)n(CC2CCCO2)c2nc(-c3ccccc3OC)nc(C(N)=O)c21 (stereo not given)	0%	1%
77	Cc1ccc(-c2cc(C(=O)N(Cc3ccccc3)Cc3ccco3)no2)cc1F	31%[activator]	1%
78	N#Cc1ccc(CS(=O)(=O)Cc2ccccc2C(F)(F)F)cc1	14%	10%
79	Cc1ccc(/C=N/Nc2ccc(S(N)(=O)=O)cc2[N+](=O)[O-])s1	-18%	0%
80	CCC(C)NC(=O)C1CCN(C(=O)c2ccc(-n3ccc4ccccc43)s2)CC1 (stereo not given)	0%	48%[activator]
81	Nc1ccc(SC(F)(F)F)cc1	3%	1%
82	Cc1cc(NC(=O)NCC(c2cccs2)N2CCCC2)no1 (stereo not given)	-16%	0%
83	CC(C)(C)c1ccc(C(CC(=O)O)NC(=O)c2cccc(F)c2)cc1 (stereo not given)	3%	20%
84	CCc1ccc(C(C)NC(=O)CSc2nc(CN3CCOCC3)nc3ccccc23)cc1 (stereo not given)	13%	-15%
85	c1ccc(CSc2nnc(-c3c[nH]c4ccccc34)o2)cc1	10%	188%[activator]
86	CC(=O)Nc1cccc(-c2csc(Nc3ccc(C)cc3)n2)c1	?	16%
87	Cc1ccc(-c2nc(CN3C(=O)C(=O)N(C(C)C)C3=O)co2)cc1	-3%	18%
88	CCOC(=O)c1c(-c2ccc(OC)c(OC)c2)csc1NC(=O)c1ccc(C)cc1	-7%	-11%
89	Cc1ccc(CS(=O)CCC(=O)Nc2ccccc2)cc1 (stereo not given)	4%	5%
90	COc1ccc(NC(=O)Cn2c(=O)n(Cc3nc(-c4ccccc4)no3)c(=O)c3ccccc32)cc1Cl	8%	19%
91	Cc1ccc2cc3cc(C(=O)NC4CCCC4)sc3nc2c1	25%	185%[activator]
92	Cn1ccnc1C(NC(=O)Nc1ccccc1)c1ccccc1F (stereo not given)	-6%	35%[activator]
93	O=[N+]([O-])c1ccc(COc2ccc(I)cc2)cc1	-6%	0%
94	CCOC(=O)c1ccccc1NC(=O)c1sc2ncn(CC)c(=O)c2c1C	2%	-10%
95	CCOc1ccc(S(=O)(=O)/C=C2\NCCc3cc(OC)c(OC)cc32)cc1	160%[activator]	-23%
96	COc1ccc(CCNC(=O)C(=O)NCC(c2cccnc2)N2CCN(c3ccccc3)CC2)cc1 (stereo not given)	-22%	-8%
97	COC(=O)C1=C(C)Nc2nc3ccccc3n2C1c1ccc(O)cc1 (stereo not given)	29%	27%
98	O=C1C(c2ccccc2)=C(c2ccccc2)C(c2ccccc2)=C1c1ccccc1	-4%	4%
99	Cc1occc1-c1nnc(SCc2cc(Cl)c3c(c2)OCCO3)n1C	44%[activator]	67%[activator]
100	O=C1OC2(c3ccccc31)c1cc(Br)c(O)c(Br)c1Oc1c2cc(Br)c(O)c1Br	?	-18%[11.5 µM]

(list continues)
no.	Structure	StopGo RLuc	StopGo FLuc
101	CN(C(=O)Cn1nc(-c2ccc(Br)cc2)ccc1=O)C1CCCCC1	-14%	-1%
102	O=C(Cn1ncn2c(cc3sccc32)c1=O)NCCc1ccccc1	5%	31%[activator]
103	CCOc1ccccc1NC(=O)Cn1c(=O)n(-c2ccc(F)cc2)c(=O)c2c3c(sc21)CN(C(C)=O)CC3	-4%	-18%
104	CC(=O)c1c(C)[nH]c(C(=O)/C(C#N)=C\c2ccc(F)cc2)c1C	128%[activator]	17%
105	N#C/C(=C/c1cc(Br)ccc1OC(F)F)c1ccccn1	-19%	11%
106	Cc1cccc(N2CCN(C(=O)Cn3ncc4c([nH]c5ccccc54)c3=O)CC2C)c1 (stereo not given)	4%	-5%
107	COc1ccc(C(=O)N(Cc2ccc(C(C)C)cc2)C2CCS(=O)(=O)C2)cc1 (stereo not given)	-12%	9%
108	O=C(NCc1ccco1)c1ccc2c(c1)N(Cc1ccc(F)cc1)C(=O)c1ccccc1S2(=O)=O	43%[activator]	0%
109	CCOC(=O)C1CCN(C(=O)CSc2n[nH]c(-c3ccccc3Cl)n2)CC1	-11%	7%
110	COc1ccc(CNC(=O)COc2ccc3ccc(=O)oc3c2)cc1	8%	0%
111	COc1ccc(CCN(C)CCCC(C#N)(c2cc(OC)c(OC)c(OC)c2)C(C)C)cc1OC (stereo not given)	-3%	4%[11.5 µM]
